Screening data as filed in PubChem.
E coli growth – E. coli growth inhibition; hit rate 0.21% among 330,000; OD600 absorbance (no concentration beside the values); Escherichia coli growth, OD600, 23 h; stronger effect = lower value;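 active = OD600 absorbance below the run mean of sample wells minus 3.6 SD, in any replicate, cut at about 0.56 in these data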;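 note: stock transfer was 300 nL into about 60 µL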
HNF4A DNA FP – change in binding of human HNF4 alpha to DNA; P41235; HNF4a-FITC DNA binding, fluorescence polarization, 1 h; activity change, % at 10 µM; hit rate 0.3% among 360,000; in the data active = activity change above about 30%, passing the limit was not always enough;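 note: controls were the assay level and a saturating level of protein; the project sought stronger binding though the title names inhibitors; some compounds called inactive have numbers as strong as hits; positive values seem to mean higher polarization but the record does not say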
ALR inh – blocks human ALR sulfhydryl oxidase activity; AID 485317; hit rate 3.8% among 290,000; purified ALR, DTT oxidation, H2O2 HRP-luminol luminescence; inhibition, % (concentration not given with the values); P55789;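 active = mean and each replicate at 75% or more; inconclusive = only one of the two met; inactive = neither met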;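 note: stock transfer was 7.5 nL into about 7.5 µL; 0% = neutral wells and 100% = wells with inactivated enzyme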
Target sequence (P55789 whole entry, looked up): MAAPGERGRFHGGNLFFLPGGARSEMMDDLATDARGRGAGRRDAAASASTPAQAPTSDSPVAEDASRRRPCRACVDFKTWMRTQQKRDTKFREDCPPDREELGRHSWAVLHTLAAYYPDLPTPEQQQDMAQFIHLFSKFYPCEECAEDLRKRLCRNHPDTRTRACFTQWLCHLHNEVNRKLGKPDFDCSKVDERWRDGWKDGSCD
rRNA inh HTS – inhibitors of bacterial rRNA selective over humanized ribosomes. hit rate 1.6% among 350,000. GFP signal change (wild-type ribosome), % (test concentration not listed). E. coli WT GFP vs humanized-ribosome RFP mutants, fluorescence, 24 h; stronger effect = lower value; DMSO median 0, no signal -100;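 active = significant combined selectivity score with lowered wild-type GFP, culture density cut under 30%, mutant RFP and density less affected; inactive = any of these conditions unmet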; note: one replicate is shown; some compounds called inactive have numbers as strong as hits
FGF22 binding – FGF22 (human) thermal shift binding; recombinant FGF22 thermal shift, SYPRO orange fluorescence; percent of sucrose octasulfate shift, DMSO zero; Q9HCT0; calls only at 9.99 µM; hit rate 1.5% among 340,000;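 active = melting point raised past a set limit in the mean and every replicate; inconclusive = no clear call; three in four hits are not shown here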
Target sequence (Q9HCT0 whole entry, looked up): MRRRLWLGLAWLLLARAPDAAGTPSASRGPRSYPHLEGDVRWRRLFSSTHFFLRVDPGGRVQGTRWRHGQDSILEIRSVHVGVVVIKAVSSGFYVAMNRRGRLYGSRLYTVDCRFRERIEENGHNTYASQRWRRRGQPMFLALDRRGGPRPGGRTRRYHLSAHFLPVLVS
Vif TR-FRET – HIV-1 Vif–A3G interaction blockers – biochemical, TR-FRET, GST-Vif 1-94, biotin-A3G peptide, dose response retest, primary screen (AID 1117319); inhibition, %, or IC50 in µM where a hit was titrated; TR-FRET GST-Vif / biotin-A3G peptide binding; higher % means a stronger effect; test concentration not given here; strong numbers were not always called active; hit rate 0.57% among 260,000;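 active = above the screen mean plus three standard deviations and confirmed in dose response; inconclusive = results disagree or hit not tested in dose response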;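 note: Vif residues 1-94 fused to GST binding biotinylated APOBEC3G peptide 110-148; 0% = full assay without inhibitor and 100% = GST in place of GST-Vif; retest series ran down from 100 µM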
AF4-AF9 inh – MLL-AF4/AF9 protein interaction inhibition; AlphaScreen, biotin-AF4 peptide binding to FLAG-AF9; inhibition, % at 10 µM; hit rate 0.47% among 350,000;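 active = every replicate reaching a set inhibition limit, whatever the replicate mean, cut at about 25% in these data; inconclusive = mean inhibition reaches that limit but some replicates miss it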;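 note: 0% = plate neutral control median and 100% = total signal loss; the record names both 10 and 1 µM as test concentration; the first replicate is given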
Target sequence (P42568 whole entry, looked up): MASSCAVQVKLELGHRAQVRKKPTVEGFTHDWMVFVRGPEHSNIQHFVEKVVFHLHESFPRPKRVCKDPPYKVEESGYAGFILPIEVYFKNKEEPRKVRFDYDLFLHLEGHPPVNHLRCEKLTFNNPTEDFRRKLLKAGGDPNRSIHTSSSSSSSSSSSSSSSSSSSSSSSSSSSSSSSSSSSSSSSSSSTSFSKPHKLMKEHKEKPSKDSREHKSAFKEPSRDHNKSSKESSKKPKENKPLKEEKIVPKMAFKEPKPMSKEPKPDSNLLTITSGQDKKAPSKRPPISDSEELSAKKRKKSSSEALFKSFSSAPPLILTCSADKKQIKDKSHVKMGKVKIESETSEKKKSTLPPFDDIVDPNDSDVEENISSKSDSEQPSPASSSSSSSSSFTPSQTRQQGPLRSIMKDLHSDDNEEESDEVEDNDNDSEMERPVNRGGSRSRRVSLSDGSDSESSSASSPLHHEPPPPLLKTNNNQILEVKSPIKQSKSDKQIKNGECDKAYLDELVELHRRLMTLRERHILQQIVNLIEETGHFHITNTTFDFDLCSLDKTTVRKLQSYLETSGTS
rRNA inh HTS OD600 – also measured in rRNA inh HTS; calls as there; OD600 change, %; measured here: OD600 growth;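 optical density of the mix in the first replicate; 0 = DMSO median and -100 = no signal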
rRNA inh HTS RFP – also measured in rRNA inh HTS; calls as there; RFP signal change, %; measured here: RFP humanized mutant strains;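 first replicate; 0 = DMSO median and -100 = no signal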
Numbers without * were called inactive; i = inactive; ? = inconclusive; . = no result given; + = active, no number. Only part of the results is shown, so the mix of outcomes need not match the whole.

SMILES | E coli growth | HNF4A DNA FP | ALR inh | rRNA inh HTS | rRNA inh HTS OD600 | rRNA inh HTS RFP | FGF22 binding | Vif TR-FRET | AF4-AF9 inh
COc1ccc(-c2c(C)cc3oc(=O)cc(-c4ccccc4)c3c2C)cc1 | 0.729 | -0.2 | . | 11.4 | 9.5 | 1.1 | i | 1.4% | -8.6
C/C=C/c1ccc2c(c1)O[C@H](CN(C)S(C)(=O)=O)[C@@H](C)CN([C@H](C)CO)S2(=O)=O | . | . | . | 2.2 | 4.5 | -2.2 | i | . | 1.1
O/N=C(\c1ccccc1)c1nccc2ccccc12 | . | -2.8 | -0.7 | 4.3 | 9.2 | -0.4 | i | 0.0% | -2.6
CC1(c2nc3ccccc3[nH]2)c2ccccc2C(=O)N1Cc1ccccn1 (centres undefined) | . | 3.9 | . | 17.2 | 9.3 | 3.1 | i | . | -1.1
CS(=O)(=O)N1CC2(C1)[C@H](c1ccccc1)[C@@H](CO)N2Cc1ccccn1 | . | . | . | 3.5 | 6.1 | -2.6 | i | . | -1.8
Cc1ccc(NC(=O)NCc2ccc3[nH]c(C)cc3c2)cc1 | 0.636 | 2.5 | -0.3 | 12.4 | 14.8 | 15.3 | . | 0.9% | -0.3
COc1ccc(/C=N/NC(=O)c2cc(-c3ccccc3)nc3ccccc23)c(C(=O)O)c1OC | . | -1.6 | 3.3 | 12.2 | 8.3 | 2.6 | i | -3.7% | -3.0
Cc1cccc(N2CCN(C(=O)c3cccc(NC4=NC5CS(=O)(=O)CC5S4)c3)CC2)c1C (centres undefined) | 0.798 | 0.2 | -23.5 | 2.5 | -5.0 | 0.5 | i | . | 7.1
O=C(COc1ccc(F)cc1)Nc1ccc(-n2cnnn2)cc1 | 0.654 | -2.1 | -5.9 | . | . | . | . | 69.2% | .
Cc1ccc(S(=O)(=O)CCC(=O)Nc2nnc(-c3ccc(F)cc3)o2)cc1 | 0.621 | -2.5 | 4.2 | 1.5 | -3.2 | -0.8 | i | -1.8% | -1.2
Cc1ccc(NC(=O)CN(C)CC(=O)Nc2ccccc2Oc2ccccc2)cc1 | 0.701 | 0.3 | -66.4 | -34.8* | -17.1* | -3.2* | i | . | 2.0
Fc1ccc(NC(=S)N2CCn3cccc3C2c2cccnc2)cc1 (centres undefined) | 0.665 | 3.5 | 5.8 | -11.2 | -0.3 | -0.4 | i | -9.7% | 5.3
Cc1ccccc1-n1c(=S)[nH]c2nc3c(cc2c1=O)COC(C)(C)C3 | 0.699 | 1.6 | . | 1.0 | 5.8 | 0.7 | i | -1.2% | 6.5
CCOC(=O)c1c(NC(=O)/C=C/C(=O)O)sc(C)c1-c1ccc(C(C)(C)C)cc1 | 0.657 | -38.9 | 96.6* | -32.0 | -41.2 | 2.4 | + | 1.9% | 0.5
COc1cccc(/C=N/Nc2ncnc3c2[nH]c2ccc(C)cc23)c1OC | . | 51.5* | -6.9 | -1.4 | -4.6 | -1.8 | . | 2.7% | 0.8
CCC(C(=O)NCc1cccc(C)c1)n1nc(C)c2c(C)n(-c3ccccc3)nc2c1=O (centres undefined) | 0.69 | -2.0 | -3.8 | -13.2 | -15.3 | 1.8 | i | . | -0.5
C/C(N)=C(/C#N)C(=O)COC(=O)COc1ccc(Cl)cc1C | . | 0.7 | 4.1 | . | . | . | . | -3.9% | .
COc1ccc(Cc2nn3c(-c4ccccc4OC)nnc3s2)cc1 | 0.651 | 0.6 | 11.1 | . | . | . | . | -4.9% | .
Cc1c(NC(=S)Nc2ccc(Cl)cc2)c(=O)n(-c2ccccc2)n1C | 0.636 | 0.6 | 2.7 | -14.8 | -11.1 | -2.4 | i | -4.2% | -1.0
COc1cc(-c2cc3nc(NCc4cccc(Cl)c4)ccn3n2)cc(OC)c1OC | . | 2.1 | . | 6.0 | 11.8 | 3.6 | i | . | -6.4
COCC(=O)Nc1ccc2c(c1)C(=O)N(C)C[C@H](OC)[C@@H](C)CN(Cc1cccc(F)c1)[C@H](C)CO2 | . | . | . | -2.4 | -4.4 | 8.6 | i | . | 2.5
Cc1oc(S(=O)(=O)N2CCCCC2)cc1NC(=O)Nc1ccccc1 | 0.695 | 2.4 | 20.6 | 0.9 | -2.3 | -2.6 | i | 9.5% | .
O=C(C[C@H]1C=C[C@@H](NC(=O)CN2CCOCC2)[C@@H](CO)O1)NCCc1ccccc1 | . | . | . | -0.5 | 5.7 | -4.2 | i | . | 0.3
COc1ccc(S(=O)(=O)N(C)C[C@H]2OCCCC[C@@H](C)Oc3ccc(NC(=O)Nc4c(C)noc4C)cc3C(=O)N([C@@H](C)CO)C[C@@H]2C)cc1 | . | . | . | -1.0 | -2.9 | -0.3 | i | . | -0.7
CCCCCOc1ccc(C2C(C(=O)c3ccc(C)o3)=C(O)C(=O)N2c2cc(C)on2)cc1 (centres undefined) | . | 2.6 | 98.1* | -10.3 | 6.9 | -3.8 | i | . | -2.3
CC1Sc2ccc(S(=O)(=O)NCCc3ccc(Cl)cc3)cc2NC1=O (centres undefined) | 0.694 | 0.9 | -3.8 | -5.0 | -25.8 | 10.4 | i | 3.0% | -5.2
OCCSc1nncn1/N=C/c1c[nH]c2ccccc12 | . | 1.0 | -16.2 | . | . | . | . | 8.9% | .
Cc1ccc(S(=O)(=O)N2CCOCC2)cc1NC(=O)CSc1nc2ccccc2c(=O)n1Cc1ccccc1 | 0.706 | 3.2 | -7.4 | 2.1 | 12.4 | 0.0 | i | 29.8% | -13.4
O=C(CCCN1C(=O)/C(=C/c2ccccc2)SC1=S)Nc1cccc(O)c1 | 0.69 | -0.3 | 2.2 | -11.9 | -12.6 | -0.4 | i | . | 9.5
CC(C)(C)S(=O)(=O)N1Cc2ccc(CO)cc2[C@@H]1CCO | 0.693 | -1.6 | . | -3.5 | 8.5 | -1.2 | i | -0.6% | -0.4
O=C(C1CCCN(S(=O)(=O)c2ccc(F)cc2)C1)N1CCCCC1 (centres undefined) | 0.652 | 1.9 | -1.6 | -1.6 | -2.5 | -0.8 | i | 1.6% | 0.4
CC(C)C[C@H](NC(=O)c1nc[nH]c1C(=O)NC(c1ccccc1)c1ccccc1)C(=O)OCc1ccccc1 | . | -0.1 | -0.3 | 5.0 | 9.6 | -8.9 | i | . | -2.2
Cc1ccc(S(=O)(=O)N[C@H]2CC[C@H](CC(=O)NC3CCCCC3)O[C@H]2CO)cc1 | . | . | . | -1.7 | -5.4 | -2.7 | i | . | -2.6
COc1cccc(CN2CCN(c3ncccn3)CC2)c1OC | 0.738 | -1.1 | . | 7.1 | 11.2 | 3.1 | i | . | 2.7
Nn1c(SCc2cccc(Br)c2)nnc1-c1ccncc1 | 0.645 | 0.0 | 11.4 | -28.7 | -10.3 | -0.2 | i | ? | -1.5
Cc1cccc(NC(=S)NC2CCSc3ccccc32)c1 (centres undefined) | 0.647 | 1.4 | 2.3 | 3.5 | 12.0 | 3.3 | i | 3.2% | 1.0
COc1ccc(OC)c(S(=O)(=O)n2cnc3ccccc32)c1 | . | 1.4 | 2.4 | -0.7 | 15.7 | 1.3 | . | ? | 2.0
CN(CC(=O)Nc1ccc(Cl)c(S(=O)(=O)N2CCOCC2)c1)C(=O)c1ccc(C#N)cc1 | 0.731 | 4.2 | . | -8.2 | -3.1 | 1.1 | i | . | 1.6
CCN=c1scc(-c2ccc(F)cc2)n1/N=C/c1ccccn1 | . | 5.3 | 6.9 | 6.2 | 2.8 | 5.5 | i | . | ?
O=c1[nH]c(CN2CCN(c3ccc([N+](=O)[O-])cc3)CC2)nc2ccsc12 | 0.735 | 0.4 | 3.0 | . | . | . | . | 3.3% | .
COc1ccccc1NC(=O)COc1coc(CN2CCN(c3ccccc3)CC2)cc1=O | 0.659 | -1.4 | . | 0.9 | -4.6 | -0.8 | i | 6.0% | -1.8
Cc1cc2cc(C)c3nnc(SCC(=O)NCc4ccco4)n3c2cc1C | 0.63 | -2.9 | 50.0 | . | . | . | . | -11.5% | .
Cc1cccc(-n2cc(C#N)c(=O)[nH]c2=O)n1 | 0.727 | 3.3 | -0.2 | 19.9 | 3.3 | 0.9 | i | -2.6% | -1.4
CC(C)[C@H](NS(=O)(=O)c1ccccc1)C(=O)OCC(=O)Nc1ccc2c(c1)OCO2 | 0.638 | -1.4 | -0.1 | . | . | . | . | 10.9% | .
O=C(CNCC1CCCO1)Nc1ccccc1N1CCOCC1 (centres undefined) | 0.694 | -1.4 | -5.7 | . | . | . | . | 3.8% | .
COC(=O)c1ccc(OCC(O)CN2CCN(C(=O)c3ccco3)CC2)cc1 (centres undefined) | 0.683 | -1.1 | . | 4.8 | 20.2 | -9.6 | i | -4.4% | -0.1
COc1cccc(NC(=O)c2ccccc2)c1 | 0.667 | 0.3 | 4.5 | 5.8 | 16.3 | -9.3 | i | . | -1.9
O=C(C[C@H]1CC[C@H](NS(=O)(=O)c2ccccc2)[C@@H](CO)O1)NCCN1CCCCC1 | . | . | . | 2.5 | -1.1 | 0.0 | i | . | 1.0
C[C@@H]1CCCCO[C@@H](CN(C)C(=O)Nc2ccccc2)[C@@H](C)CN([C@H](C)CO)C(=O)c2cc(NS(=O)(=O)c3ccccc3)ccc2O1 | . | . | . | 4.6 | 12.4 | -0.7 | i | . | -0.4
CC1=CCC2COC(c3ccc[n+](Cc4ccccc4)c3)C1C2 (centres undefined) | 0.684 | 4.0 | -20.2 | -4.8 | 5.2 | 5.7 | i | 9.1% | 6.9
O=C(CC1C(=O)NCCN1Cc1cccc(Oc2ccccc2)c1)NCCc1cscn1 (centres undefined) | 0.635 | -1.9 | -3.7 | 0.2 | -5.0 | -2.3 | i | -1.3% | 2.7
c1ccc(OCc2nc3ccccc3[nH]2)cc1 | 0.591 | -4.0 | 1.1 | . | . | . | . | -3.7% | .
Cc1nn(C)c(N)c1[N+](=O)[O-] | 0.678 | -1.4 | -6.0 | 7.7 | -12.9 | -1.4 | i | . | -0.7
Cc1cccc(NC(=O)CCNC(=O)c2ccc(Br)cc2)c1 | 0.652 | -0.1 | . | -8.1 | 1.8 | 1.6 | i | -0.8% | -0.7
CSc1cccc(CN(C)C(=O)C2CCC(=O)N(CCCN3CCCC3=O)C2)c1 (centres undefined) | 0.679 | -1.5 | -1.8 | 4.9 | 4.7 | -2.0 | i | . | -3.0
COc1cc(N)c(Cl)cc1C(=O)OCC(=O)N1c2ccccc2NC(=O)C1(C)C | 0.693 | 5.5 | . | -2.9 | -12.3 | 4.4 | i | -9.4% | -2.0
COC(=O)c1cc(NC(=O)C(C)c2ccc(CC(C)C)cc2)ccc1O (centres undefined) | 0.683 | -2.0 | -4.0 | 7.9 | 4.8 | 2.4 | i | . | -1.3
CC(=O)Nc1ccc(NC(=O)C2CCCCN2S(=O)(=O)c2ccc(C(C)(C)C)cc2)cc1 (centres undefined) | 0.665 | 1.2 | 0.6 | -25.4 | -57.1 | -4.6 | i | . | ?
CCCN1C[C@H](C)[C@@H](OC)CN(C)C(=O)c2cc(NC(=O)Nc3ccccc3F)ccc2OC[C@@H]1C | . | . | . | -2.5 | 3.4 | 5.1 | i | . | 0.0

Three compounds out of the list, arranged by count of non-hydrogen atoms, ascending.
SMILES | E coli growth | HNF4A DNA FP | ALR inh | rRNA inh HTS | rRNA inh HTS OD600 | rRNA inh HTS RFP | FGF22 binding | Vif TR-FRET | AF4-AF9 inh
c1ccc(OCc2nc3ccccc3[nH]2)cc1 | 0.591 | -4.0 | 1.1 | . | . | . | . | -3.7% | .
COc1cc(N)c(Cl)cc1C(=O)OCC(=O)N1c2ccccc2NC(=O)C1(C)C | 0.693 | 5.5 | . | -2.9 | -12.3 | 4.4 | i | -9.4% | -2.0
O=C(CC1C(=O)NCCN1Cc1cccc(Oc2ccccc2)c1)NCCc1cscn1 (centres undefined) | 0.635 | -1.9 | -3.7 | 0.2 | -5.0 | -2.3 | i | -1.3% | 2.7
